# PrP 5UTR inh – inhibition of PrP 5' UTR reporter expression; cell-based PrP 5' UTR mRNA reporter, plate reader; inhibition, % (no concentration beside the values); hit rate 0.35% among 340,000; AID 488862;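 active = every replicate at 50% or more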;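 note: 0 = median of the neutral control wells; tested in H4 reporter cells; numbers are from one replicate; inactives centre near -14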
# Sa RN4220 lethal – S. aureus RN4220 growth inhibition | OD600, 16 h | inhibition, % (concentration not given with the values) | hit rate 0.33% among 330,000 | AID 1259311;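 active = z-score of -3 or lower and OD600 up to 0.18 on both plates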;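 note: plate controls were untreated cells for no effect and reference antibiotic for full effect; stock transfer was 100 nL into about 80 µL; one replicate is shown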
# Autofluor counter – flagged as autofluorescent in microsphere protease counterscreen. AID 624483. compound autofluorescence counterscreen, microsphere flow cytometry; active compounds read high. fluorescence intensity (concentration not given with the values). hit rate 3.1% among 360,000;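 active = at least 3 SD above the mean of all compounds, about 16000 in these data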;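 note: 100 nL of 1 mM stock went into each well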
# ugtP null kill – kills S. aureus RN4220 lacking UgtP; S. aureus RN4220 ugtP deletion, OD600 growth, 16 h; some inactives read as strong as hits; growth inhibition, % (no concentration beside the values); hit rate 0.54% among 330,000;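 active = z-score under -3 and OD600 up to 0.15 on both plates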;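 note: plate controls were untreated wells for no effect and antibiotic for full effect; wells of about 80 µL received 100 nL stock; the first replicate is given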
# Mtb hypoxia rep – reduces hypoxia-regulated biosensor signal in M. tuberculosis; M. tuberculosis hypoxia-regulated fluorescent reporter, fluorescence; fluorescence inhibition, % (concentration not given with the values); hit rate 0.1% among 300,000; AID 1159583;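 active = 35 to 45% if threefold the growth effect, above 45% if 1.5-fold the growth effect; inactive = the rest, general growth blockers included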;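 note: wells of about 50 µL received 100 nL stock; 0% = vehicle wells and 100% = reference inhibitor wells; whole bacteria with a GFP reporter of the hypoxia response; strong numbers were not always called active; many hits fall short of the cut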
# BJeLR lethal – BJeLR cell viability loss. BJeLR (HRASV12) viability, CellTiter-Glo ATP luminescence, 48 h; reference of the scale not given here. inhibition, % (concentration not given with the values). hit rate 0.17% among 300,000. AID 1554;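 active = replicate mean above 50%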;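 note: 50 nL library stock added to about 25 µL; numbers are from one replicate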
# Mtb hypoxia rep growth – recorded beside Mtb hypoxia rep, whose call it bears; growth inhibition, %; measured here: M. tuberculosis growth (absorbance);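 0% = vehicle and 100% = reference antibiotic; read after six days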
# * = called active by the depositor; nt = not tested or not shown. Rows are unselected; about 4% have a hit in one of these screens.
nr	SMILES	PrP 5UTR inh	Sa RN4220 lethal	Autofluor counter	ugtP null kill	Mtb hypoxia rep	Mtb hypoxia rep growth	BJeLR lethal
1	CCC(C(=O)NC1CCCCC1)n1c2ccccc2c2nc(=O)cc(C)n21 (centres undefined)	-11	1.5	5424	8	18	8	-10
2	NC(=O)C1CCN(CC(=O)Nc2cccnc2Cl)CC1	-11	7.2	4501	4	-1	-9	4
3	CCN(CC)C(=O)C(=O)c1cn(CCOc2ccccc2)c2ccccc12	-20	4.4	3943	19	14	9	-4
4	O=C(O)/C=C/C(=O)c1ccc(O)cc1	-19	3.4	4294	-6	9	1	9
5	Cc1cc(=O)[nH]c(-c2ccc(Cl)cc2)n1	-11	3.3	4456	7	4	1	-1
6	O=Nc1c(O)[nH]c2c(F)cccc12	-26	6.0	2262	-7	5	5	8
7	COc1ccc(OCC(=O)N2CCCC(N3CCN(c4ccccc4C)CC3)C2)cc1 (centres undefined)	-3	3.7	3840	10	-2	8	12
8	Cc1ccccc1NC(C)C(=O)NN=Cc1c[nH]c2ccccc12 (centres undefined)	nt	-3.9	nt	-9	-8	-2	nt
9	CN1CCCC(CN2c3ccccc3Sc3ccccc32)C1 (centres undefined)	-14	-5.8	4430	17	15	11	5
10	NC(=O)c1cc(-c2ccccc2)sc1NC(=O)Cc1ccc(S(=O)(=O)N2CCOCC2)s1	-15	2.7	3245	3	9	7	-5
11	Cn1c(SCc2nc(-c3ccccc3)no2)nnc1-c1cccs1	-15	3.5	20460*	-2	-2	9	-5
12	Cc1ccc2c(c1)C(=C(C#N)C#N)C(=O)N2CCN1CCCCC1	-38	6.4	3292	-19	-3	3	-6
13	Cc1cc(NC(=O)c2c(F)c(F)c(F)c(F)c2F)no1	-9	2.9	11507	-3	9	-3	10
14	Cc1cc(C)nc(N2CCCC(C(=O)NNC(=O)c3ccncc3)C2)n1 (centres undefined)	-24	3.6	4552	4	-13	-2	-2
15	CCCCNC(=O)COC(=O)c1cc(C)nc2ccccc12	-11	2.2	10188	3	4	8	-3
16	CC(C)NC(=O)C(=O)Nc1cc2c3c(c1)CCC(=O)N3CCC2	-5	5.1	4298	8	4	-12	-1
17	CC(C)(C)N1C(=O)[C@H]2[C@@H](c3ccc(Br)cc3)N3C(=O)N(c4cccc(F)c4)C(=O)[C@@]3(C)[C@H]2C1=O	-25	nt	3346	nt	nt	nt	-2
18	COC(=O)c1ccc(NC(=O)CCCCCn2nnc3ccccc3c2=O)cc1	-2	-1.2	3339	3	-10	3	0
19	O=C(C1=C[C@@H](c2ccc(C(F)(F)F)cc2)C[C@@H](OCc2ccc(CO)cc2)O1)N1CCN(Cc2ccc3c(c2)OCO3)CC1	10	nt	4322	nt	nt	nt	-2
20	O=C(Nc1nnc(CSCc2ccccc2F)s1)c1cccc([N+](=O)[O-])c1	3	3.0	2064	-3	1	-2	-1
21	Cc1c(C(=O)OC/C(O)=C(\C#N)c2nc3ccccc3[nH]2)oc2ccc(Br)cc12	-18	3.9	5423	1	-1	-5	4
22	CN(Cc1ccccc1)C(=O)COc1cc(Cl)ccc1Cl	-21	9.9	3891	14	11	9	-1
23	O=C(CCS(=O)(=O)c1ccc(Br)cc1)NCc1ccco1	1	3.9	5153	3	-15	-18	-10
24	Cc1ccc(S(=O)(=O)N2CCN(C(=O)CSc3n[nH]c(N)n3)CC2)c(C)c1	-47	-0.5	3413	-2	2	1	nt
25	CC(C)N(C(=O)[C@H]1C[C@H](CC(=O)NCCCn2ccnc2)C(=O)N2CCc3c([nH]c4cc(CCC(=O)N(C)C)ccc34)[C@]12C)C(C)C	-11	3.0	3555	3	-8	5	nt
26	CCOc1ccc(S(=O)(=O)N(CC)CC)cc1NC(=O)CSCc1c(C)noc1C	-13	nt	5124	nt	nt	nt	2
27	O=C(Nc1cccc(/C=C/c2nc3ccccc3c(=O)[nH]2)c1)c1ccccc1Cl	-22	4.9	5144	-3	-1	4	0
28	C/C(CC(=O)Nc1ccc(Br)cc1)=N\NC(=O)c1cccc(O)c1	-19	nt	3957	nt	nt	nt	-10
29	O=C(NCCCn1ccnc1)c1cccc(S(=O)(=O)NCc2ccccc2)c1	-11	-0.8	3504	2	13	5	11
30	Cc1nc(N)sc1-c1csc(Nc2ccccc2)n1	-66	6.1	3078	-9	nt	nt	-4

# Going on with the list:
item	molecule	PrP 5UTR inh	Sa RN4220 lethal	Autofluor counter	ugtP null kill	Mtb hypoxia rep	Mtb hypoxia rep growth	BJeLR lethal
31	CCOC(=O)c1sc(NNC(=O)c2ccc(C)cc2)nc1C	-7	2.9	3713	-1	-11	1	-12
32	CC(=O)C(Sc1nc(N2CCOCC2)nc(N2CCOCC2)n1)C(=O)Nc1ccccc1 (centres undefined)	-7	-2.0	4421	4	nt	nt	-3
33	CCCCC(CCC(=O)Nc1ccc(C(=O)OCC)cc1)C(=O)O (centres undefined)	14	-1.6	3467	-2	nt	nt	-7
34	Fc1ccc2nc(Nc3nc4c(F)cccc4s3)sc2c1	-90	-3.3	2001	3	-2	1	3
35	COc1cccc(NC(=O)CSc2nc3c(c(-c4ccco4)c2C#N)CCCC3)c1	-7	7.0	23093*	5	5	0	-4
36	C/C(=N\NC(=O)c1ccc(CSc2nc(C)cc(C)n2)cc1)c1ccco1	-13	nt	4468	nt	nt	nt	-19
37	CSc1ccccc1NC(=O)COC(=O)c1ccc(-n2nc(C)cc2C)cc1	-18	13	8162	1	13	13	nt
38	Cc1ccc(C2=NN=C(NC(=O)CSc3nnc4c5ccccc5n(C)c4n3)SC2)cc1	-30	2.8	2112	-15	0	0	-11
39	Cn1c(NC(=O)C2c3ccccc3Oc3ccccc32)cc(=O)n(C)c1=O	-4	-2.6	2394	-11	7	7	nt
40	Cc1cc(=O)n(C)c(=O)n1CCCCOc1ccc([N+](=O)[O-])cc1	-13	3.4	4667	2	12	2	1
41	CCOc1ccc(N2CC(C(=O)NCCCN3CCOCC3)CC2=O)cc1 (centres undefined)	-10	1.1	8538	2	1	-2	0
42	O=C(OCC(=O)N1CCN(c2ccccc2)CC1)c1ccc[n+]([O-])c1	-21	nt	6105	nt	nt	nt	4

# The results go on:
item	molecule	PrP 5UTR inh	Sa RN4220 lethal	Autofluor counter	ugtP null kill	Mtb hypoxia rep	Mtb hypoxia rep growth	BJeLR lethal
43	CN(C(=O)c1ccc(NC(=O)Cc2ccc(NC(=O)C3CCN(C(=O)CCc4ccccc4)CC3)cc2)cc1)C1CC1	-18	-17	4305	-7	5	6	nt
44	Cc1cc(N=Nc2ccccc2)c(NCC(O)C(O)C(O)CO)cc1C (centres undefined)	-32	5.0	4270	7	25	9	9
45	CCC(=O)Nc1ccc(C(=O)Nc2cccc(OC)c2)cc1	-12	2.7	2596	0	nt	nt	-9
46	N#Cc1ccc(S(=O)(=O)N2CCC(C(=O)Nc3cccc(C(=O)NC4CC4)c3)CC2)cc1	-2	0.3	3637	0	17	9	nt
47	CC1CN(C(=O)C(C)Sc2nc3ccccc3s2)CC(C)O1 (centres undefined)	-4	8.1	3501	3	nt	nt	4
48	O=C(N/N=C/c1ccco1)C1COc2ccccc2O1 (centres undefined)	-14	nt	2564	nt	nt	nt	-1
49	CC(C)CC(COCc1ccc(Cl)cc1)N1CCN(C(=O)c2cccc(C(F)(F)F)c2)CCC1=O (centres undefined)	-15	5.1	3950	7	17	3	9
50	COc1cc2cnc(C3=CCCCC3)cc2cc1OC	-10	12	3990	-8	13	26	nt
51	COc1ccc(Cl)cc1NC(=O)c1nnn(CC(=O)Nc2ccc3c(c2)OCO3)c1N	7	-5.0	4099	-7	-9	-8	-7
52	CC(C)c1ccc(N(CC(=O)NCc2ccc(F)cc2)C(=O)c2csnn2)cc1	-25	3.9	4030	-7	11	5	-13
53	Cc1cc(=O)oc2cc(OCC(=O)Nc3ccc(CN4CCOCC4)cc3)ccc12	-11	-0.5	6049	0	7	10	-3
54	O=C(N/C=N/O)C(c1ccccc1)c1ncc(C(F)(F)F)cc1Cl (centres undefined)	-3	3.9	3880	4	4	1	-5

# Other compounds.
item	molecule	PrP 5UTR inh	Sa RN4220 lethal	Autofluor counter	ugtP null kill	Mtb hypoxia rep	Mtb hypoxia rep growth	BJeLR lethal
55	CCCCCc1c(C)nc(Nc2ccc(F)cc2)[nH]c1=O	-8	-8.3	2870	-17	6	3	-1
56	O=C(c1ccc([N+](=O)[O-])cc1)N1CCN(C(=O)c2cccs2)CC1	-19	7.7	2075	2	2	12	-3
57	COc1cccc(NC(=S)N(CCN(C)C)C(C)c2ccco2)c1 (centres undefined)	-18	3.9	2002	7	8	4	-7
58	Nc1nonc1-n1nnc(C(=O)N/N=C/c2c(F)cccc2Cl)c1-c1ccc2c(c1)OCO2	-3	nt	5460	nt	nt	nt	-8
59	CN(C)c1ccc(CNC(=O)C2CCN(S(=O)(=O)c3ccc4c(c3)CCC(=O)N4)CC2)cc1	-19	1.2	5980	9	nt	nt	3
60	COc1cccc2cc(C(=O)CS(=O)(=O)c3ccc(C(C)(C)C)cc3)c(=O)oc12	-3	5.1	5697	6	6	5	-5
61	Cc1ccccc1C(=O)Oc1cc(N)n(S(=O)(=O)c2ccccc2)n1	-58	0.6	2255	-3	-10	-2	-13
62	CC(C)=CCC1=C(OCC(=O)O)C(=O)c2ccccc2C1=O	-17	33	4066	0	10	13	-12
63	O=c1[nH]n2cc(-n3cc([N+](=O)[O-])cn3)cnc2c1Br	-23	1.3	3462	5	3	-12	8
64	CCCCc1nc2cc(C(=O)N3CCC(OCCOC)CC3)ccc2o1	-37	4.6	4061	8	-3	-7	1
65	CCOC(=O)CSc1nnc(NC(=O)c2ccc3c(c2)OCO3)s1	4	3.5	8318	12	10	1	-7
66	COc1ccc(C(=O)Nc2cccc(S(=O)(=O)NCc3ccco3)c2)cc1	-23	1.2	4182	10	11	3	nt
67	COc1ccccc1N1CCN(c2nc(N)c(C#N)c(CC#N)c2C#N)CC1	-14	-10	3417	-1	9	1	-8

# Gathered by group, those above with two or more sulfur atoms
item	molecule	PrP 5UTR inh	Sa RN4220 lethal	Autofluor counter	ugtP null kill	Mtb hypoxia rep	Mtb hypoxia rep growth	BJeLR lethal
10	NC(=O)c1cc(-c2ccccc2)sc1NC(=O)Cc1ccc(S(=O)(=O)N2CCOCC2)s1	-15	2.7	3245	3	9	7	-5
11	Cn1c(SCc2nc(-c3ccccc3)no2)nnc1-c1cccs1	-15	3.5	20460*	-2	-2	9	-5
20	O=C(Nc1nnc(CSCc2ccccc2F)s1)c1cccc([N+](=O)[O-])c1	3	3.0	2064	-3	1	-2	-1
24	Cc1ccc(S(=O)(=O)N2CCN(C(=O)CSc3n[nH]c(N)n3)CC2)c(C)c1	-47	-0.5	3413	-2	2	1	nt
26	CCOc1ccc(S(=O)(=O)N(CC)CC)cc1NC(=O)CSCc1c(C)noc1C	-13	nt	5124	nt	nt	nt	2
30	Cc1nc(N)sc1-c1csc(Nc2ccccc2)n1	-66	6.1	3078	-9	nt	nt	-4
34	Fc1ccc2nc(Nc3nc4c(F)cccc4s3)sc2c1	-90	-3.3	2001	3	-2	1	3
38	Cc1ccc(C2=NN=C(NC(=O)CSc3nnc4c5ccccc5n(C)c4n3)SC2)cc1	-30	2.8	2112	-15	0	0	-11
47	CC1CN(C(=O)C(C)Sc2nc3ccccc3s2)CC(C)O1 (centres undefined)	-4	8.1	3501	3	nt	nt	4
65	CCOC(=O)CSc1nnc(NC(=O)c2ccc3c(c2)OCO3)s1	4	3.5	8318	12	10	1	-7

# Reformatted: three of the compounds above.
55	CCCCCc1c(C)nc(Nc2ccc(F)cc2)[nH]c1=O
  PrP 5UTR inh: -8
  Sa RN4220 lethal: -8.3
  Autofluor counter: 2870
  ugtP null kill: -17
  Mtb hypoxia rep: 6
  Mtb hypoxia rep growth: 3
  BJeLR lethal: -1
56	O=C(c1ccc([N+](=O)[O-])cc1)N1CCN(C(=O)c2cccs2)CC1
  PrP 5UTR inh: -19
  Sa RN4220 lethal: 7.7
  Autofluor counter: 2075
  ugtP null kill: 2
  Mtb hypoxia rep: 2
  Mtb hypoxia rep growth: 12
  BJeLR lethal: -3
57	COc1cccc(NC(=S)N(CCN(C)C)C(C)c2ccco2)c1 (centres undefined)
  PrP 5UTR inh: -18
  Sa RN4220 lethal: 3.9
  Autofluor counter: 2002
  ugtP null kill: 7
  Mtb hypoxia rep: 8
  Mtb hypoxia rep growth: 4
  BJeLR lethal: -7
